Compound activity deposited in PubChem by several laboratories.
PABP FP inh = blocks human PABP binding to poly(A) RNA; inhibition, % at 35 µM; AID 2014; fluorescence polarization; 290,000 tested, 1% active; P11940;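 active means 50% or more with normal probe brightness, or confirmed in later tests; about a fifth of its hits are not listed in these tables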;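 further: calls also rest on retests at 20 µM and on dose response follow-up; controls were probe without protein and protein plus probe with vehicle; some compounds called inactive have numbers as strong as hits; many hits fall short of the cut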
Target sequence (P11940 whole entry, looked up): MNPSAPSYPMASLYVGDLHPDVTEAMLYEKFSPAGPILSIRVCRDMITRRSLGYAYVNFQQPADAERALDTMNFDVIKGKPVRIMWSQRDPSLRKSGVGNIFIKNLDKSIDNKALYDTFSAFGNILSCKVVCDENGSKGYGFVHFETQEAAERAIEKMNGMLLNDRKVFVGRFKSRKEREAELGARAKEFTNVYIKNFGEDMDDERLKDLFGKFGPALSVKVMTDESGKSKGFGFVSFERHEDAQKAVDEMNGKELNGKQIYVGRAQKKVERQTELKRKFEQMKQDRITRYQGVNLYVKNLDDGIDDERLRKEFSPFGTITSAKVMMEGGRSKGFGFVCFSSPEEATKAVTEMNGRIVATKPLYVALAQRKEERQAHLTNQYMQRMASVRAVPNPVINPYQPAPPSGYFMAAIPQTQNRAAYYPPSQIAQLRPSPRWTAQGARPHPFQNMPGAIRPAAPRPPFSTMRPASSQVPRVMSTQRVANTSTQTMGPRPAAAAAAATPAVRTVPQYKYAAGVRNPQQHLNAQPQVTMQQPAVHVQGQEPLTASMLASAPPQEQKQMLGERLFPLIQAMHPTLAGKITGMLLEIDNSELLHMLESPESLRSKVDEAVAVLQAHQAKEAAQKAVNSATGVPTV
UUG fidelity = alters start codon recognition fidelity in yeast. S. cerevisiae UUG-firefly luciferase reporter, luminescence/redox ratio. 350,000 tested, 0.13% active. activity score, % at 18.7 µM. AID 602363;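 active means replicate mean at a twofold rise or more, about +100% in these data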;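 further: firefly luciferase made from a UUG start codon reports start codon fidelity; reporter light over untreated wells divided by growth signal over untreated wells; some hits fall short of that in this replicate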
Env fusion inh = HIV envelope-mediated fusion inhibition | HeLa-JRFL Env/CEM21 cell fusion, luciferase | inhibition, % at 12.3 µM | 360,000 tested, 1.1% active | AID 651610;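 active means mean replicate inhibition score of at least 50 and every replicate individually at or above 50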;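 further: 0% = plate neutral controls and 100% = maraviroc near 300 nM; one replicate is shown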
MT1-MMP act inh = blocks activation of human MT1-MMP | GFP/RFP ratio change, % at 20 µM | 360,000 tested, 0.061% active | AID 651647 | P50281 | HT1080 RFP-PRO-GFP cells, GFP/RFP ratio fluorescence, overnight; percent of plate control window, DMSO zero;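 active means GFP/RFP ratio change of at least 30% with cell ATP level not reduced by more than half and red fluorescence within 50% of control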; further: strong numbers were not always called active
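Assay system: HT1080 cells carrying an RFP-PRO-GFP reporter | Dosing: Single dose of 20 µM compound, 1% DMSO final | Incubation: Cells overnight before dosing, compound overnight, 37 °C, 5% CO2 | Evaluation: GFP/RFP fluorescence ratio | Control set: DMSO and RFP-L50D-GFP cell wells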
Rce1 inhib = blocks yeast Ras-converting enzyme; Q03530; yeast membranes, quenched prenylated peptide cleavage fluorescence; calls only; 290,000 tested, 0.27% active; AID 2563;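 active means fall in fluorescence gain of 50% or more versus controls, with final raw signal at or below 3038400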;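 further: plate controls were neutral control wells for no effect and wells lacking membranes for full effect; tested at 10 µM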
CSC inhib = blocks cancer stem cells; cancer stem cell-like cells viability, luminescence; inhibition, % at 7.5 µM; 300,000 tested, 1.1% active; AID 2717;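 active means mean at 75% or more and at least half the replicates too; tested in HMLE shEcad cells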;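 further: 0% = median of negative and 100% = median of positive control wells; the first replicate is given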
eIF4H FP inh = inhibitors of RNA binding by human eIF4H; Q15056; eIF4H fluorescence polarization binding assay; 290,000 tested, 0.94% active; inhibition, % at 35 µM;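 active means 50% or more with normal probe brightness, or confirmed in later tests; about a fifth of its hits are not listed in these tables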;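 further: calls also rest on retests at 20 µM and on dose response follow-up; 0% = protein and probe with vehicle and 100% = probe without protein; strong numbers were not always called active; many hits fall short of the cut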
eIF4H FP inh retest = also measured in eIF4H FP inh; calls as there; inhibition, %; compound at 20 µM; confirmation average;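 mean of two retest wells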
PABP FP inh retest = recorded beside PABP FP inh, whose call it bears; inhibition, %; compound at 20 µM; confirmation repeats;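 mean of two retest wells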
MT1-MMP act inh RFP = recorded beside MT1-MMP act inh, whose call it bears; RFP signal change, %; measured here: RFP expression control read;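 0 = vehicle wells; hits needed this value within 50% of zero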
* hit, by the source's call; i = inactive; / = not tested or not shown. Only part of the results is shown; the hit share may differ from the screen's.

SMILES | PABP FP inh | UUG fidelity | Env fusion inh | MT1-MMP act inh | MT1-MMP act inh RFP | Rce1 inhib | CSC inhib | eIF4H FP inh | others
Cc1cc(OCC(=O)N2CCN(c3ccccc3)CC2)c2c(C)cc(=O)oc2c1 | 2 | -8 | 2 | -2 | 2 | i | 5 | -9
CCOC(=O)C1=C(C(F)(F)F)Nc2ncnn2C1c1cc(OC)ccc1OC (stereo not drawn) | -14 | -8 | 11 | 1 | 4 | i | -2 | -4
C/C(=N\Nc1ccccc1)c1cccc(N)c1 | -1 | -18 | 1 | 7 | 0 | i | -6 | -4
CC1(C)Cc2ccccc2C(NNC(=O)c2ccc(Br)o2)=N1 | 2 | -14 | -14 | 2 | 3 | i | 14 | -10
NS(=O)(=O)c1ccc(OC(=O)CNC(=O)OCc2ccccc2)cc1 | / | / | -9 | -2 | 2 | i | 6 | /
CCc1ccc(-c2nc(CSCC(=O)NCCCN3CCCC3=O)c(C)o2)cc1 | -2 | -1 | -7 | 16 | 4 | i | -15 | -1
Cc1ccc(OC(=O)CCC(=O)Nc2ccc(Br)cc2)cc1 | -4 | -9 | 3 | 0 | 2 | i | -4 | -8
COc1ccc(-c2cc(C(=O)N(C)Cc3ccc(OC)c(OC)c3OC)c3ccccc3n2)cc1OC | 48 | 13 | 23 | -6 | 4 | i | 8 | 11
CCn1cc(NC(=O)CCl)c(C)n1 | 13 | / | / | / | / | i | 3 | -5
COc1cc(OC)cc(C(=O)NCC(=O)OCc2ccc(Cl)c(Cl)c2)c1 | / | 3 | -14 | -2 | -1 | / | / | /
COc1ccc(S(=O)(=O)Nc2nnc(C(C)(C)C)s2)cc1 | 13 | 3 | / | 1 | 2 | / | / | 4
CC(C)CC(=O)c1c[nH]c(C(=O)NCCCN2CCOCC2)c1 | 1 | 3 | 2 | 1 | 6 | i | / | 6
CN(C)C(CNC(=O)c1ccc2c(=O)n(-c3ccccc3F)c(=S)[nH]c2c1)Cc1ccccc1 (stereo not drawn) | 8 | / | -3 | -3 | -6 | i | / | -5
COc1ccc2nc(C)cc(SCC(=O)N/N=C/c3ccc(O)cc3O)c2c1 | 1 | / | 13 | -1 | -15 | i | 104* | 9
O=C(NCCC1CCCCN1S(=O)(=O)c1ccccc1)C(=O)Nc1ccc(F)cc1F (stereo not drawn) | / | -11 | -12 | -4 | -4 | i | 23 | /
Cc1sc2ncnc(NCc3ccco3)c2c1C | 45* | / | / | 0 | -16 | i | -5 | 66* | eIF4H FP inh retest=93*;PABP FP inh retest=58*
O=c1/c(=C\c2cccn2-c2ccccc2)sc2nc3ccccc3n12 | 1 | 2 | -174 | -3 | 3 | / | / | -8
CCOc1ccc(NC(=O)CSc2nnnn2C2CC2)cc1S(=O)(=O)N1CCCC1 | / | -34 | / | 0 | 0 | / | -5 | /
O=C1Nc2ncccc2OC1CCCl (stereo not drawn) | 2 | -15 | -25 | -4 | 9 | i | / | -3
CC1(C)CC(=O)C2=C(C1)NCN(Cc1ccc3c(c1)OCO3)C2 | 2 | -12 | / | 1 | 1 | i | 7 | -6
COc1ccc(S(=O)(=O)N(C)CC(=O)Nc2ccc(C(F)(F)F)cc2)cc1Cl | -4 | 2 | -5 | -1 | -4 | i | -5 | -6
CCn1c(SCc2ccccc2)nc2cc(OC)c(OC)cc2c1=O | -6 | -2 | 23 | -9 | -6 | i | -14 | 4
O=C(NCc1cccs1)C(=O)NCC1OCCCN1S(=O)(=O)c1cc(F)ccc1F (stereo not drawn) | 5 | -18 | -6 | 3 | -3 | i | 10 | 6
O=C(N/N=C/c1c[nH]c2ccccc12)c1cc(-c2ccc3ccccc3c2)n[nH]1 | 9 | / | -12 | -2 | -9 | i | 68 | 0
COC(=O)NC1(C(=O)O)CCCC1 | -13 | -11 | 10 | / | / | i | 3 | 4

Compounds from the list above with an aryl methoxy group (seven):
SMILES | PABP FP inh | UUG fidelity | Env fusion inh | MT1-MMP act inh | MT1-MMP act inh RFP | Rce1 inhib | CSC inhib | eIF4H FP inh | others
CCOC(=O)C1=C(C(F)(F)F)Nc2ncnn2C1c1cc(OC)ccc1OC (stereo not drawn) | -14 | -8 | 11 | 1 | 4 | i | -2 | -4
COc1ccc(-c2cc(C(=O)N(C)Cc3ccc(OC)c(OC)c3OC)c3ccccc3n2)cc1OC | 48 | 13 | 23 | -6 | 4 | i | 8 | 11
COc1cc(OC)cc(C(=O)NCC(=O)OCc2ccc(Cl)c(Cl)c2)c1 | / | 3 | -14 | -2 | -1 | / | / | /
COc1ccc(S(=O)(=O)Nc2nnc(C(C)(C)C)s2)cc1 | 13 | 3 | / | 1 | 2 | / | / | 4
COc1ccc2nc(C)cc(SCC(=O)N/N=C/c3ccc(O)cc3O)c2c1 | 1 | / | 13 | -1 | -15 | i | 104* | 9
COc1ccc(S(=O)(=O)N(C)CC(=O)Nc2ccc(C(F)(F)F)cc2)cc1Cl | -4 | 2 | -5 | -1 | -4 | i | -5 | -6
CCn1c(SCc2ccccc2)nc2cc(OC)c(OC)cc2c1=O | -6 | -2 | 23 | -9 | -6 | i | -14 | 4

(cont.)
SMILES | PABP FP inh | UUG fidelity | Env fusion inh | MT1-MMP act inh | MT1-MMP act inh RFP | Rce1 inhib | CSC inhib | eIF4H FP inh | others
COc1ccccc1Oc1ccc(N/C=C/C(=O)c2ccco2)cc1 | 0 | -32 | -68 | -1 | -5 | i | 2 | 6
COc1ccc(N(CC(=O)NC2CCCC2)C(=O)c2ccc(N3CCCCC3)nc2)cc1 | -4 | -2 | -69 | 0 | -1 | i | / | -3
COc1ccc(CC(=O)O/N=C(\N)Cc2ccc(OC)c(OC)c2)cc1 | 3 | / | / | -3 | -5 | i | -10 | -1
CS(=O)(=O)c1ccc(NC(=O)c2cccc(S(=O)(=O)N3CCN(Cc4ccccc4)CC3)c2)cc1 | -9 | 1 | 50 | -3 | -23 | / | -6 | -7
CC(C)(C)c1ccc(C(=O)NCCC(=O)N2CCN(c3ncccn3)CC2)cc1 | -6 | / | / | 4 | 1 | i | -8 | -8
Cc1nn(-c2ccccc2)c(-n2cccc2)c1C(=O)O | -4 | -4 | -8 | 1 | 6 | i | 13 | -6
O=C(Oc1ccc2c(=O)c(Oc3ccc4ccccc4c3)coc2c1)c1ccco1 | 1 | -15 | / | 2 | 6 | i | 6 | -10
C=CCC(O)(CC=C)C(C)N (stereo not drawn) | -4 | / | -2 | -1 | 1 | i | -13 | -11
COc1ccc(NC(=O)C2CCCN2C(=O)Nc2ccccc2)cc1OC (stereo not drawn) | 15 | 10 | -126 | -3 | 0 | i | -1 | -4
CN(NC(=O)/C=C/C(=O)O)c1ncc(C(F)(F)F)cc1Cl | 8 | -28 | -64 | 0 | 1 | i | 7 | 25
Cc1cccc(NC(=O)CSc2nnc(NC(=O)c3ccc(S(=O)(=O)N4CCOCC4)cc3)s2)c1C | -2 | / | -18 | / | / | i | -9 | -5
CCN1C(=O)[C@H]2[C@@H](c3ccc(OC)cc3)N[C@]3(CCCN(Cc4ccco4)C3=O)[C@H]2C1=O | / | -11 | 5 | 5 | 7 | / | / | /
Cc1cccc(Cn2c(SCCN3CCCCC3)nc3c2c(=O)[nH]c(=O)n3C)c1 | 2 | -7 | / | 1 | 1 | i | 13 | -2
Cc1ccc(OCCCCn2ccnc2C)c(C)c1 | 9 | -5 | 15 | -3 | -8 | i | / | 7
CC(=O)N(c1ccccc1C)C1CCCC1 | 2 | -7 | / | 0 | 2 | i | 1 | -5
O=C(NNC(=O)C1CC(c2cccnc2)=NO1)Nc1ccccc1F (stereo not drawn) | -3 | -17 | 15 | 2 | 7 | i | -14 | 8
CC1(C)CC(=O)C2=C(C1)c1c(ccc3ccccc13)NC2c1ccc(C(=O)O)cc1 (stereo not drawn) | 8 | -15 | -2 | -1 | -7 | i | -11 | -2
COc1ccc(-c2nnn(CC(=O)Nc3ccc4c(c3)OCCO4)n2)cc1OC | / | -21 | / | 4 | -2 | / | -7 | /
O=C(Cc1ccc(Br)cc1)N1CCN(C(=O)c2ccco2)CC1 | 6 | -14 | -20 | 3 | 2 | i | -1 | 0
COc1cccc(NC(=O)N2CCCC2C(=O)Nc2ccc3c(c2)OCCO3)c1 (stereo not drawn) | 16 | / | 3 | 0 | 2 | i | -16 | -5
COC(=O)COc1ccc(NC(=O)c2ccco2)cc1 | 6 | -12 | -21 | -1 | 1 | i | -13 | 4
CCCCn1ccc(=O)c2c(C(F)(F)F)nccc21 | 6 | 1 | / | 1 | -8 | i | -2 | -3
COc1ccc(-c2cc(=O)[nH]c(NCc3ccccc3)n2)cc1 | -9 | -21 | -37 | 3 | 1 | i | 3 | -10
O=S(=O)(Nc1cccc(-c2cn3c(n2)SCC3)c1)c1ccc(F)cc1F | 13 | -5 | 19 | 1 | -2 | i | 14 | 6
O=C(Nc1ccc2c(c1)OCO2)C1Cc2c(-c3cccnc3)ccnc2O1 (stereo not drawn) | / | -33 | 2 | 2 | -1 | / | / | /
Next section:
SMILES | PABP FP inh | UUG fidelity | Env fusion inh | MT1-MMP act inh | MT1-MMP act inh RFP | Rce1 inhib | CSC inhib | eIF4H FP inh | others
C=CCNC(=S)N/N=C/c1ccccc1OCCOc1ccccc1 | -12 | -30 | -9 | 0 | -2 | i | -5 | 4
CCOc1ccc2[nH]c3c(N4CCC5(CC4)OCCO5)ncnc3c2c1 | 0 | / | 10 | / | / | / | 19 | -14
Cc1ccc(S(=O)(=O)NC2CCCc3ccccc32)cc1C (stereo not drawn) | -18 | 17 | -36 | -3 | -8 | i | 1 | -8
CCOc1ccc(Nc2cc(=O)n(C)c(=O)n2C)cc1 | -1 | / | / | 3 | 5 | i | 13 | 0
O=C(NCCCN1CCCC1=O)c1cccc(S(=O)(=O)N2CCCCC2)c1 | / | 1 | 12 | -1 | -1 | / | 13 | /
CC(C)C(OC(=O)c1nsc(Cl)c1Cl)C(=O)NCc1ccc2c(c1)OCO2 (stereo not drawn) | -2 | / | 3 | -4 | -1 | i | -7 | -8
COc1ccc(C(=O)N2CCC(C(=O)c3c(C)cc(C)cc3C)CC2)cc1 | 0 | / | 15 | -20 | -18 | i | 5 | -16
CCCCn1c(=O)c(C(=O)c2ccccc2)nc2ccccc21 | -2 | -7 | -42 | 0 | 1 | i | -1 | 0
c1ccc(CN2CCN(c3nc4ccccc4c4ccccc34)CC2)cc1 | 1 | 6 | / | 0 | -2 | i | 12 | -7
CCOCCOc1nc2c(c(=O)n(C)c(=O)n2C)n1CCc1ccccc1 | -7 | -3 | / | 7 | -4 | i | 17 | 1
Cc1cccc(C)c1OCCOC(=O)c1ccc(S(=O)(=O)N2CCCC2)cc1 | / | -8 | -13 | -4 | -3 | / | / | /
CCCCSc1nnc2c(n1)OC(C(=O)c1ccccc1)Nc1ccccc1-2 (stereo not drawn) | 14 | / | / | / | / | i | / | 6
O=C(NCCCn1ccnc1)c1cccnc1 | -9 | 8 | -96 | 32* | -4.0* | i | -8 | 5
CC(C)Sc1nnc(-c2ccc(S(=O)(=O)N3CCOCC3)cc2)n1C | 0 | -9 | 8 | -2 | -3 | i | -19 | -6
CCC(=O)N1c2ccccc2NC2=C(C(=O)CCC2)C1c1ccc(N(C)C)cc1 (stereo not drawn) | 2 | 9 | -102 | -2 | 4 | i | -9 | -8
Cn1ncc([N+](=O)[O-])c1C(=O)Nc1ccccc1Cl | -2 | -12 | -38 | 0 | -1 | i | -19 | -6
CCOc1cc(/C=N/NC(N)=O)ccc1OCC(=O)Nc1ccc(C)c(C)c1 | 4 | / | 21 | 4 | 3 | i | -3 | -3
COC(=O)c1c(-c2cc(OC)cc(OC)c2)sc2ccc(OC)cc12 | / | -24 | -43 | -1 | -2 | / | / | /
CC(C)NC(=O)CN1C(=O)NC(CCc2ccccc2)C1=O (stereo not drawn) | -12 | -20 | / | 2 | 3 | i | -9 | -7
Cc1cc(C)c(C)c(C(=O)COC(=O)CNC(=O)CNC(=O)c2ccco2)c1C | -2 | -11 | -2 | 1 | 9 | i | 6 | -10
